TsaE inh: inhibitors of E. coli YjeE (TsaE) | purified YjeE, fluorescence polarisation of a bound ADP probe | Potency, µM | 0.05% of 71,000 active; active = well fitted falling curve; inconclusive = weaker or top-dose-only fall, or a rising curve; inactive = flat or poorly fitted curve;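 further: top concentration of the series not given in the record; excess ADP was the control for the full effect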
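Fluorescence polarization of a BODIPY Texas Red–ADP probe (2 uM) bound to purified YjeE (10 uM) was read after 15 min room-temperature incubation with compounds. Loss of polarization marks inhibitors; ADP serves as titrated control.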
PK Bst: pyruvate kinase (B. stearothermophilus) modulation; AID 361; 1.2% of 51,000 active; Potency, µM; partly purified Bacillus stearothermophilus pyruvate kinase, luminescence ATP production; ribose 5-phosphate activator present at AC10; in the data active means potency below about 11 µM; inconclusive means mostly about 12 µM to 25 µM; inactive means weaker than that;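 the screen sought inhibitors and activators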;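 further: potency means the concentration at half of the fitted maximal effect; scaled between full activation by ribose 5 phosphate and full inhibition by luteolin; about four in five hits inhibit and the cells do not say which; series up to 57 µM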
* marks the source's active call; other numbers are inactive results. Only part of the results is shown, so the mix of outcomes need not match the whole.

`O=C(O)C1CC1c1ccc(Br)cc1` (stereo not drawn) gave TsaE inh inactive and PK Bst >57.
For Cc1cc(C)c(S(=O)(=O)N2CCCCC2)c(C)c1-n1ncnn1 the results were TsaE inh inactive and PK Bst >57.
For CCCSC1=C(C#N)C(c2ccccc2OCC)CC(=O)N1 (stereo not drawn) the results were TsaE inh inactive and PK Bst >11.4.
Screening O=C1C(c2ccncc2)N(CCC2=CCCCC2)C(=O)CN1C1CCCCC1 (stereo not drawn) returned TsaE inh inactive and PK Bst >57.
Cc1cc(NC(=O)C2CC(c3ccc(F)cc3)=NO2)no1 (stereo not drawn) was read as TsaE inh inactive.
Screening Cc1noc(/C=C/N(C)C)c1S(=O)(=O)N1CCCC(C(=O)Nc2ccc3c(c2)OCO3)C1 (stereo not drawn) returned TsaE inh inactive.
CC(C)(C)NC(=O)C1CN(S(=O)(=O)c2ccccc2)CCN1S(=O)(=O)c1ccccc1 (stereo not drawn) was read as TsaE inh inactive.
O=C(O)C1C(c2ccccc2)C(C(=O)N2CCOCC2)C1c1ccccc1 (stereo not drawn) was read as TsaE inh inactive and PK Bst >57.
`CC1CC(C)CN(CCCNC(=O)C2CCCN(c3nnc(N4CCCC4=O)s3)C2)C1` (stereo not drawn) gave TsaE inh inactive and PK Bst >57.
`O=C(NCc1cccnc1)c1ccc(COc2ccccc2Br)o1` gave TsaE inh inactive and PK Bst >57.
Screening NC(=O)CSc1nnnn1CC(CC(=O)O)c1ccccc1 (stereo not drawn) returned TsaE inh inactive and PK Bst >57.
NC(=O)N/N=C\c1ccc([N+](=O)[O-])o1 was read as TsaE inh inactive.
`OCCSc1c(F)c(SCCO)c(SCCO)c(F)c1SCCO` gave TsaE inh inactive and PK Bst >57.
`O=C(O)c1cccc(S(=O)(=O)N2Cc3ccccc3C2)c1` gave TsaE inh inactive and PK Bst >57.
Screening O=C(Nc1ccc(Cn2nnc3ccccc32)cc1)c1ccco1 returned TsaE inh inactive and PK Bst >57.
Screening CCOC(=O)c1cc2n(n1)C(C(F)(F)F)CC(C)N2 (stereo not drawn) returned TsaE inh inactive and PK Bst >57.
Screening Cn1c(C(=O)OCC(=O)NCC2CCCO2)cc2sccc21 (stereo not drawn) returned TsaE inh inactive and PK Bst >57.
`c1ccc(-c2noc(CSc3nc4ccccc4o3)n2)cc1` gave TsaE inh inactive and PK Bst >57.
Screening Cc1ccc(S(=O)(=O)NC(C)(C)CSc2nncn2N)cc1 returned TsaE inh inactive and PK Bst >57.
Cc1cc(C)cc(OCc2nnc(SCC(=O)N3CCN(c4ccccc4)CC3)o2)c1 was read as TsaE inh inactive and PK Bst >57.
For COc1cccc(C(=O)CSc2nc3ccccc3n2CC(=O)N2CCOCC2)c1 the results were TsaE inh inactive and PK Bst >57.
For O=C(N1CCOCC1)N1c2ccccc2CC(N2CCOCC2)c2ccccc21 (stereo not drawn) the results were TsaE inh inactive and PK Bst >57.
Cc1cc(NCCN2CCOCC2)n2ncc(-c3ccccc3)c2n1 was read as TsaE inh inactive.
CCn1nnnc1NCc1ccc(N2CCCC2)cc1 was read as TsaE inh inactive and PK Bst >57.
Screening CCOC(=O)c1ccccc1NC(=O)CCNC(=O)Cn1cnc2ccccc2c1=O returned TsaE inh inactive and PK Bst >57.
`CC(C)(C)C1=C[C@@H](CO)C[C@@H](CO)C1` gave TsaE inh inactive and PK Bst >57.
`CN1CCN(c2nc3c(c(=O)n(C)c(=O)n3C)n2Cc2cccc3ccccc23)CC1` gave PK Bst >25.6.
Screening c1nc(N2CCCCCC2)c2[nH]cnc2n1 returned TsaE inh inactive.
For CC1CCN(C(=O)Cn2c(=O)n(CCc3ccccc3)c(=O)c3ccccc32)CC1 the results were TsaE inh inactive and PK Bst >57.
Screening CCOC(=O)C1CCCN(c2ncnc3c2oc2ccccc23)C1 (stereo not drawn) returned TsaE inh inactive.
For COc1ccc(N2CCN(C(=O)c3cccc(Cn4cc(Cl)cn4)c3)CC2)cc1 the results were TsaE inh inactive and PK Bst >57.
COc1ccccc1CNS(=O)(=O)c1ccc(NC(C)=O)cc1 was read as TsaE inh inactive and PK Bst >57.
Screening COC(=O)c1nnn(CC(=O)Nc2cc(Cl)ccc2C)c1C(=O)OC returned TsaE inh inactive and PK Bst >57.
For O=C(c1ccco1)N1CCN(S(=O)(=O)c2ccc3c(c2)CCN3C(=O)C2CCC2)CC1 the results were TsaE inh inactive and PK Bst >57.
`CCCCOCCCNC(=O)c1c(-c2ccccc2)noc1C` gave TsaE inh inactive and PK Bst >57.
Cc1cc(C)c(S(=O)(=O)N2CCN(C)CC2)c(C)c1 was read as TsaE inh inactive.
`COCCN1C(=O)c2ccccc2C(C(=O)NCCCN2CCCC2)C1c1c[nH]c2ccccc12` (stereo not drawn) gave TsaE inh inactive and PK Bst >57.
`COc1cccc(OC)c1-c1nn2c(-c3cc(-c4ccccc4)n[nH]3)nnc2s1` gave TsaE inh inconclusive and PK Bst >57.
O=c1c(-c2ccc(Cl)cc2)nc2cnc(N3CCOCC3)nc2n1Cc1ccc(F)cc1 was read as TsaE inh inactive.
Screening COc1cc(C2C(C(N)=O)=C(C)Nc3nc(CCCO)nn32)cc(OC)c1OC (stereo not drawn) returned TsaE inh inactive.
For C=CCn1c(SC2CCOC2=O)nc2scc(C3CC3)c2c1=O (stereo not drawn) the results were TsaE inh inactive and PK Bst >57.
Screening O=C(c1ccc(Cl)cc1)N1CCCOC1 returned TsaE inh inactive and PK Bst >57.
Screening CC(C)[C@H](N)c1nnc(SCc2ccc(Cl)cc2)o1 returned TsaE inh inactive and PK Bst >57.
For Cc1cccc(-c2nc(CN3CCCC(C(=O)NC4CCCCCC4)C3)c(C)o2)c1 (stereo not drawn) the results were TsaE inh inactive and PK Bst >57.
Cc1cc(SCC(=O)N2CCC(c3noc4ccc(F)cc34)CC2)nc2ccccc12 was read as TsaE inh inactive and PK Bst >57.
For C[C@@H]([C@H](O)c1ccc(O)cc1)N1CCC(Cc2ccccc2)CC1 the results were TsaE inh inactive.
Screening CCOC(=O)c1ccc(NC(=O)CSc2nnnn2CCCO)cc1 returned TsaE inh inactive and PK Bst >57.
`Cc1oc(-c2ccccc2F)nc1CN1CCC(C(=O)NC2CC2)CC1` gave TsaE inh inactive and PK Bst >57.
Screening COc1ccccc1NC(=O)N(C1CCCC1)C1CCN(C(C)=O)CC1 returned TsaE inh inactive.
Cc1cc(C)n(CC(=O)c2ccccc2)c(=O)c1C#N was read as PK Bst >25.6.
Screening Cc1ccc(NC(=O)CS(=O)CC(=O)N(CC(=O)NC2CCCC2)c2cccc(C)c2C)cc1 (stereo not drawn) returned TsaE inh inactive and PK Bst >57.
For O=C1C2C3C=CC(C3=C3CCCCC3)C2C(=O)N1Cc1ccccc1 (stereo not drawn) the results were TsaE inh inactive and PK Bst >57.
Screening COC(=O)[C@@]1(Cc2ccc(F)cc2)[C@H]2c3cc(C(=O)N(C)C)n(CCc4ccc(O)c(O)c4)c3C[C@H]2CN1C(=O)c1ccccc1 returned TsaE inh inactive.
Screening Cc1ccsc1C(=O)Nc1nnc(-c2ccco2)o1 returned TsaE inh inactive and PK Bst >57.
For COc1ccc2[nH]c(=O)c(CN(C(=O)NC3CCCCC3)C3CCCCC3)cc2c1 the results were TsaE inh inactive and PK Bst >57.
Screening CC1(C)N=C(N)N=C(N)N1c1cccc(OCc2cccc([N+](=O)[O-])c2)c1 returned TsaE inh inactive.
For CCN1C(=O)/C(=c2\o/c(=C3\C=Cc4ccccc4N3CC)c(=O)n2CC)SC1=S the results were TsaE inh inactive and PK Bst >57.
`Nc1nnnn1/N=C/c1ccccc1OCc1ccccc1` gave TsaE inh inactive.
Screening N#CCCN1CCN(C(=S)c2ccc(-c3ccc(Cl)cc3)o2)CC1 returned TsaE inh inactive and PK Bst inconclusive.
`COc1ccccc1C(=O)Nc1ccc2c(c1)nc(CN1CCN(C(C)=O)CC1)n2C` gave TsaE inh inactive and PK Bst >57.

Entries above containing a tert-butyl group (two):
CC(C)(C)NC(=O)C1CN(S(=O)(=O)c2ccccc2)CCN1S(=O)(=O)c1ccccc1 (stereo not drawn) was read as TsaE inh inactive.
`CC(C)(C)C1=C[C@@H](CO)C[C@@H](CO)C1` gave TsaE inh inactive and PK Bst >57.

(continued)
Cn1c(SCC(=O)c2ccccc2)nnc1-c1cnccn1 was read as TsaE inh inactive and PK Bst >57.
Cc1nnc2ccc(N3CCN(c4cccc(C(F)(F)F)c4)CC3)nn12 was read as TsaE inh inactive.
`CN(C(=O)COc1ccc(C(C)(C)C)cc1)C1CCS(=O)(=O)C1` (stereo not drawn) gave TsaE inh inactive and PK Bst >57.
For Cc1cc(C)cc(N(CC(=O)NCC2CCCO2)S(=O)(=O)c2c(C)noc2C)c1 (stereo not drawn) the results were TsaE inh inactive.
For CCCCC(=NCCO)C1=C(O)C(C(=O)OC)C(C)(C)CC1=O (stereo not drawn) the results were TsaE inh inactive and PK Bst >57.
COc1ccc(CCn2c(=N)c(C(=O)NCc3ccco3)cc3c(=O)n4ccccc4nc32)cc1 was read as PK Bst >25.6.
Cc1ccc(CCN2CC(C(=O)NCCCN(C)Cc3ccccc3)CC2=O)cc1 (stereo not drawn) was read as TsaE inh inactive and PK Bst >57.
`CC1(C)CC(=O)C2=C(C1)NC(=O)CC2c1ccccc1F` (stereo not drawn) gave TsaE inh inactive and PK Bst >57.
For Cc1cc(C(=O)N(C)Cc2ccc(Br)cc2)no1 the results were TsaE inh inactive and PK Bst >57.
`NC1(C(=O)O)CC1` gave TsaE inh inactive.
`O=C(COc1cccc(NC(=O)c2ccco2)c1)c1ccc(F)cc1` gave TsaE inh inactive.
`COCCCNc1oc(-c2ccccc2OC)nc1C#N` gave TsaE inh inactive and PK Bst >57.
For COc1ccc(Cl)c(Cn2c(NCc3ccccn3)nc3c2c(=O)n(C)c(=O)n3C)c1 the results were TsaE inh inactive and PK Bst >57.
CCOC(=O)c1c(NC(=O)CC)sc(C(C)=O)c1C was read as TsaE inh inactive and PK Bst >57.
Screening Cc1nc(SCc2nc3ccccc3[nH]2)c2oc3ccccc3c2n1 returned TsaE inh inactive and PK Bst >57.
NS(=O)(=O)c1cc2c(cc1Cl)NC(C1C[C@H]3C=C[C@@H]1C3)NS2(=O)=O (stereo partly drawn) was read as PK Bst >25.6.
For CCCN(CCC)C(=O)C1CCN(c2cc(C)nc3c(-c4ccc(OC)c(OC)c4)c(C)nn23)CC1 the results were TsaE inh inactive.
For CC(C)(C)SCCNC(=O)COc1ccc(Cl)cc1 the results were TsaE inh inactive.
`O=C(C1Cc2ccccc2CN1S(=O)(=O)c1ccc(F)cc1)N1CCCCC1` (stereo not drawn) gave TsaE inh inactive and PK Bst >57.
CCOC(=O)c1sc(C(=O)OCC)c(OCCO)c1OCCO was read as TsaE inh inactive and PK Bst >57.
`COc1ccc(-c2nnc3ccc(SCC(=O)N4CCCCC4)nn23)cc1OC` gave TsaE inh inactive.
Screening CC(=O)c1ccc(C(=O)Nc2ccc(N3CCOCC3)cc2)cc1 returned TsaE inh inactive.
O=C(COC(=O)c1ccccc1Nc1ccccc1)NCc1ccco1 was read as TsaE inh inactive and PK Bst >57.
For O=C(c1cccc(Cl)c1)N1CCN(c2ccccn2)CC1 the results were TsaE inh inactive and PK Bst >57.
Screening CCc1ccccc1NS(=O)(=O)c1ccc2[nH]cc(C(=O)NCc3ccco3)c(=O)c2c1 returned TsaE inh inactive and PK Bst >57.
Screening C=CCn1c(SCC(=O)NCCOC)nc2scc(-c3ccco3)c2c1=O returned TsaE inh inactive and PK Bst >57.
Screening Cc1ccc(-c2csc(/C(C#N)=C(\O)CN3CCN(C(=O)c4ccco4)CC3)n2)cc1 returned TsaE inh inactive and PK Bst >57.
Screening CCC(C)Nc1nc(-c2cccc(OC)c2O)nc2ccccc12 (stereo not drawn) returned PK Bst >25.6.
CS(=O)(=O)Nc1cccc(-c2nc(NC3CC3)c3ccccc3n2)c1 was read as TsaE inh inactive.
Screening N#CCCn1c(=O)c(-c2cc(F)cc(F)c2)nc2cnc(Oc3ccccc3)nc21 returned TsaE inh inactive.

Entries above that have a furan ring, fused or not, in the order listed:
`O=C(NCc1cccnc1)c1ccc(COc2ccccc2Br)o1` gave TsaE inh inactive and PK Bst >57.
NC(=O)N/N=C\c1ccc([N+](=O)[O-])o1 was read as TsaE inh inactive.
Screening O=C(Nc1ccc(Cn2nnc3ccccc32)cc1)c1ccco1 returned TsaE inh inactive and PK Bst >57.
Screening CCOC(=O)C1CCCN(c2ncnc3c2oc2ccccc23)C1 (stereo not drawn) returned TsaE inh inactive.
For O=C(c1ccco1)N1CCN(S(=O)(=O)c2ccc3c(c2)CCN3C(=O)C2CCC2)CC1 the results were TsaE inh inactive and PK Bst >57.
Screening Cc1ccsc1C(=O)Nc1nnc(-c2ccco2)o1 returned TsaE inh inactive and PK Bst >57.
Screening N#CCCN1CCN(C(=S)c2ccc(-c3ccc(Cl)cc3)o2)CC1 returned TsaE inh inactive and PK Bst inconclusive.
COc1ccc(CCn2c(=N)c(C(=O)NCc3ccco3)cc3c(=O)n4ccccc4nc32)cc1 was read as PK Bst >25.6.
`O=C(COc1cccc(NC(=O)c2ccco2)c1)c1ccc(F)cc1` gave TsaE inh inactive.
Screening Cc1nc(SCc2nc3ccccc3[nH]2)c2oc3ccccc3c2n1 returned TsaE inh inactive and PK Bst >57.
O=C(COC(=O)c1ccccc1Nc1ccccc1)NCc1ccco1 was read as TsaE inh inactive and PK Bst >57.
Screening CCc1ccccc1NS(=O)(=O)c1ccc2[nH]cc(C(=O)NCc3ccco3)c(=O)c2c1 returned TsaE inh inactive and PK Bst >57.
Screening C=CCn1c(SCC(=O)NCCOC)nc2scc(-c3ccco3)c2c1=O returned TsaE inh inactive and PK Bst >57.
Screening Cc1ccc(-c2csc(/C(C#N)=C(\O)CN3CCN(C(=O)c4ccco4)CC3)n2)cc1 returned TsaE inh inactive and PK Bst >57.

Assay outcomes (PubChem BioAssay)
